Bioassay records deposited in PubChem BioAssay by National Center for Advancing Translational Sciences (NCATS).
EPAC2 ant val = Validation qHTS for antagonist of cAMP-regulated guanine nucleotide exchange factor 4 (EPAC2). Rap guanine nucleotide exchange factor 4 (Homo sapiens), Q8WZA2. EPAC2 Rap1B BODIPY-GDP exchange, fluorescence. Potency, µM (highest dose often 112 µM), without a hit: top-dose activity, negative = inhibition, usual class: inhibitors. 1.7% of 16,000 active. AID 1645886, 2021; active means well fitted inhibition curve with a large enough effect; inconclusive means small, poorly fitted or top-dose-only effect; inactive means no such curve, though single readings can be large or run the other way;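 further: 100% = activation by cAMP agonist control; nearly all actives have a fitted effect of over 40% in size; the record reuses the description of the EPAC1 agonist screen; inactives centre near -10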
Target sequence (Q8WZA2 whole entry, looked up): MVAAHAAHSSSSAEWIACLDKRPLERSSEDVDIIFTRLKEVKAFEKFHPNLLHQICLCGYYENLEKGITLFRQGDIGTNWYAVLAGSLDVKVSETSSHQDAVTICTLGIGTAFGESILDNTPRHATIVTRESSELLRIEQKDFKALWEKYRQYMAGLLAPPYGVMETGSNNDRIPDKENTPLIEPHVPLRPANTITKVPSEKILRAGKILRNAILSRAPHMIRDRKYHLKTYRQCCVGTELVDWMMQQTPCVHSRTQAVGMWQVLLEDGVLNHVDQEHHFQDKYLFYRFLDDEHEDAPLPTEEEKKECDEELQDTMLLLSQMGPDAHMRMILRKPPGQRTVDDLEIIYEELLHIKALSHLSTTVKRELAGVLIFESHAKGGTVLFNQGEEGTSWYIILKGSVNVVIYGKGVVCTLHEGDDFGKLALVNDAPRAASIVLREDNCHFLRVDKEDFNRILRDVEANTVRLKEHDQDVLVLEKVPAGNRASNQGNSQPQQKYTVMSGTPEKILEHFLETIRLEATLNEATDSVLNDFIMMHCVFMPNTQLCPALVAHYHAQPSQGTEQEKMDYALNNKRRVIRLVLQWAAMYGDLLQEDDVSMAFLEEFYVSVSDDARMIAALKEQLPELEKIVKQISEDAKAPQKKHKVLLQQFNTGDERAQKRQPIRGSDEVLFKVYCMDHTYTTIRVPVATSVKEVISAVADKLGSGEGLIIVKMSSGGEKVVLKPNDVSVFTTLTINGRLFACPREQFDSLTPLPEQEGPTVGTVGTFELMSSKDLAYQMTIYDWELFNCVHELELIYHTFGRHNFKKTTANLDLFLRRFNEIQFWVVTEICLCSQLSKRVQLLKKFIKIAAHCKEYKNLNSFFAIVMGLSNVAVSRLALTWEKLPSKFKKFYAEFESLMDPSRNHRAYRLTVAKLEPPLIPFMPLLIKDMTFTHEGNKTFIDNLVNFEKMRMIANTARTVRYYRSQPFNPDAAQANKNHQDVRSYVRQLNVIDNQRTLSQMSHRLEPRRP
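Normalized against a 6.5 mM cAMP agonist control, compounds were tested on 100 nM EPAC2 exchanging Rap1B-bound BODIPY-GDP (250 nM) for 50 uM GDP. Fluorescence drop (ex 480, em 540 nm) was tracked at room temperature over 30 min at 5-min intervals.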
Active calls of the source: *; ? = inconclusive; & = joins results of further samples. Potency means the concentration at half of the fitted maximal effect. These rows are one share of the data, so the mix of outcomes need not match the whole.

mol: O=C1CCC(c2ccc(-n3ccnc3)cc2)=NN1
  EPAC2 ant val: -8%&5%

mol: CCC1(C2CCN(Cc3ccccc3Cl)CC2)NC(=O)N(CC2COc3ccccc3O2)C1=O (stereo unspecified)
  EPAC2 ant val: ?

mol: Cc1ccccc1-c1ccc(CN2CCc3nnc(C(NS(C)(=O)=O)C(C)C)n3CC2)cc1 (stereo unspecified)
  EPAC2 ant val: ?

mol: O=C(/C=C/c1ccc(O)c(O)c1)OCCc1ccccc1
  EPAC2 ant val: ?

mol: CC(C)CC(=O)N1C/C=C\C[C@@H](c2ccc(Cl)cc2)N(Cc2ccc(Cl)cc2)C(=O)[C@@H]1Cc1ccccc1
  EPAC2 ant val: 18%

mol: Cc1ccc(CNc2nc(CN3CCCCC3c3cccnc3)nc3ccccc23)o1 (stereo unspecified)
  EPAC2 ant val: ?

mol: CN(C)C(=O)c1ccc(-c2ccc3ncnc(Nc4ccc(F)cc4)c3c2)cc1
  EPAC2 ant val: -10%

mol: CCCCC[C@H](O)/C=C/[C@@H]1[C@H]2C/C(=C/CCCC(=O)O)O[C@H]2C[C@H]1O
  EPAC2 ant val: -3%

mol: CC(C)c1c(C(=O)NCc2cccnc2)cnn1-c1nccc(-c2ccccc2F)n1
  EPAC2 ant val: -19%

mol: c1ccc2oc(C3=NCCN3)cc2c1
  EPAC2 ant val: -14%

mol: COC(=O)[C@@H]1CCCN1S(=O)(=O)Cc1ccccc1
  EPAC2 ant val: 3%

mol: CN(Cc1ccc(C(C)(C)C)cc1)Cc1cccc2ccccc12
  EPAC2 ant val: 3%&-27%

mol: COc1ccc(Oc2ncc3nc(-c4cn(C)c5ccccc45)c(=O)n(C)c3n2)cc1
  EPAC2 ant val: -39%

mol: O=C1CC[C@@H](C(=O)N2CSC[C@H]2C(=O)O)N1
  EPAC2 ant val: 5%

mol: COC(=O)[C@@H]1C[C@@H](NC(=O)c2cnsn2)CN1Cc1ccc(Cl)cc1
  EPAC2 ant val: -21%

mol: COc1cc2c(cc1OC)[C@@H]1CC(=O)[C@@H](CC(C)C)CN1CC2
  EPAC2 ant val: ?

mol: Clc1ccc(N2CCN(Cc3c[nH]c4ncccc34)CC2)cc1
  EPAC2 ant val: -23%&-17%&-32%

mol: Cc1nc([N+](=O)[O-])cn1-c1ccc([N+](=O)[O-])cc1
  EPAC2 ant val: -20%

mol: COc1cc(-c2noc(C)c2C#CCO)cc(OC)c1OC
  EPAC2 ant val: -28%

mol: Cc1ccnn1CC(=O)N1CCOc2c(cc(-c3ncc(C(F)(F)F)cc3Cl)cc2OCC2CCCO2)C1 (stereo unspecified)
  EPAC2 ant val: -5%

mol: CCOC(=O)COc1ccc2c(C)c(CCN(CC)CC)c(=O)oc2c1
  EPAC2 ant val: 14%

mol: CCOC(=O)N1CCN(Cc2ccc3c(c2)CN(C(=O)c2cccc(-n4cccn4)c2)CCO3)CC1
  EPAC2 ant val: -2%

mol: CC[N+](CC)(CC)c1ccc(/C=C/c2ccnc3ccccc23)cc1
  EPAC2 ant val: ?

mol: Cc1cnc(-n2ncc(C(=O)N(C)CCc3ccccn3)c2-c2cccs2)nc1-c1ccc(F)cc1
  EPAC2 ant val: -14%

mol: CC[C@@H]1CN2CCc3cc(OC)c(OC)cc3[C@@H]2C[C@@H]1C[C@H]1NCCc2cc(OC)c(OC)cc21
  EPAC2 ant val: -13%

Some of these compounds in order of number of heavy atoms, highest first.
mol: Cc1cnc(-n2ncc(C(=O)N(C)CCc3ccccn3)c2-c2cccs2)nc1-c1ccc(F)cc1
  EPAC2 ant val: -14%

mol: COc1ccc(Oc2ncc3nc(-c4cn(C)c5ccccc45)c(=O)n(C)c3n2)cc1
  EPAC2 ant val: -39%

mol: CCOC(=O)COc1ccc2c(C)c(CCN(CC)CC)c(=O)oc2c1
  EPAC2 ant val: 14%

The list goes on:
mol: O=C(NCC1(N2CCCCC2)CCCCC1)c1ccc(-n2cc(NC(=O)c3cccnc3)cn2)cc1
  EPAC2 ant val: ?

mol: Cc1onc(-c2ccccc2)c1C(=O)NC1C(=O)N2C(C(=O)O)C(C)(C)S[C@@H]12 (stereo partly specified)
  EPAC2 ant val: -17%

mol: Cc1cnc(SCC2CCCO2)nc1C1CCCN(Cc2nc(-c3ccccc3)cs2)C1 (stereo unspecified)
  EPAC2 ant val: -11%

mol: CO[C@H]1C=CO[C@@]2(C)Oc3c(C)c(O)c4c(O)c(c(/C=N/N5CCN(C)CC5)c(O)c4c3C2=O)NC(=O)/C(C)=C\C=C[C@H](C)[C@H](O)[C@@H](C)[C@@H](O)[C@@H](C)[C@H](OC(C)=O)[C@@H]1C
  EPAC2 ant val: ?

mol: COC(=O)c1ccc2nc3c(cc2c1)[C@@H]1CCN2C(=O)CCC[C@H](C3)[C@H]12
  EPAC2 ant val: -26%

mol: COc1cc(-c2cc(C)c3c(OC)ccc(OC)c3n2)cc2c1OCCN(C(=O)CCn1ccc(C)n1)C2
  EPAC2 ant val: -26%

mol: CC1(c2ccccc2)OC(C(=O)O)=CC1=O (stereo unspecified)
  EPAC2 ant val: ?

mol: CCC(=O)NS(=O)(=O)c1ccc(-c2c(-c3ccccc3)noc2C)cc1
  EPAC2 ant val: 5%

mol: CC(=O)N[C@H]1[C@H]([C@H](O)[C@H](O)CO)OC(C(=O)O)=C[C@@H]1N=C(N)N
  EPAC2 ant val: -7%

mol: C=C[C@]1(C)Cc2occ(C)c2C[C@H]1C(=C)C(=O)O
  EPAC2 ant val: -8%

mol: COc1cc2c(cc1OC)C1C(=O)c3ccc4c(c3OC1CO2)C=CC(C)(C)O4 (stereo unspecified)
  EPAC2 ant val: -22%

mol: C#CCN(C)Cc1ccccc1
  EPAC2 ant val: -6%

mol: COC1C=CC23c4cc5c(cc4CN(CC2O)C3C1)OCO5 (stereo unspecified)
  EPAC2 ant val: -12%

mol: OC(CN1CCN(c2cccc(Cl)c2)CC1)C(c1ccccc1)c1ccccc1 (stereo unspecified)
  EPAC2 ant val: -15%&-4%&-22%

mol: O=C(Nc1ccccc1)N1CC[C@@]2(CCCN(C(=O)c3csnn3)C2)C1
  EPAC2 ant val: -15%

mol: CCc1cc(C(=O)NCC2Cc3cc(C)cc(-c4cc(C(C)=O)ccc4F)c3O2)n(C)n1 (stereo unspecified)
  EPAC2 ant val: ?

mol: O=C(O)CCc1nc2ccccc2[nH]1
  EPAC2 ant val: -1%

mol: NC(=O)[C@@H]1CCCN1C(=O)CC1(c2cccc(F)c2)CC(=O)N(C2CCCC2)C1=O (stereo partly specified)
  EPAC2 ant val: 3%

mol: CS(=O)(=O)N1CCC2(CCCN(Cc3cc(C(F)(F)F)cc(C(F)(F)F)c3)C2)CC1
  EPAC2 ant val: ?

mol: CCC[C@H]1COCCS(=O)(=O)N1Cc1ccccc1
  EPAC2 ant val: -8%

mol: COc1ccc2c(c1)-c1nc(-n3ncc(C(=O)NC[C@@H]4CCCN5CCCC[C@H]45)c3C)ncc1CC2
  EPAC2 ant val: -5%

mol: CC(=O)c1ccc(F)c(-c2cc(C)cc3c2OC(CNC(=O)c2cnc4ccccn4c2=O)C3)c1 (stereo unspecified)
  EPAC2 ant val: ?

mol: Cc1c(C(=O)N(C)Cc2nccs2)sc2ncnc(NCC3CCCO3)c12 (stereo unspecified)
  EPAC2 ant val: -9%

mol: O=C(Nc1ccc(Cl)cc1)Nc1ccc(Cl)c(Cl)c1
  EPAC2 ant val: ?

mol: CCC1CN(Cc2cn[nH]c2-c2ccccc2)Cc2cc(OC)ccc2O1 (stereo unspecified)
  EPAC2 ant val: -31%

Exported as comma-separated lines: part of the list above
Compound,EPAC2 ant val
COC1C=CC23c4cc5c(cc4CN(CC2O)C3C1)OCO5 (stereo unspecified),-12%
O=C(Nc1ccccc1)N1CC[C@@]2(CCCN(C(=O)c3csnn3)C2)C1,-15%
CCc1cc(C(=O)NCC2Cc3cc(C)cc(-c4cc(C(C)=O)ccc4F)c3O2)n(C)n1 (stereo unspecified),?
CC1(c2ccccc2)OC(C(=O)O)=CC1=O (stereo unspecified),?
Cc1cnc(SCC2CCCO2)nc1C1CCCN(Cc2nc(-c3ccccc3)cs2)C1 (stereo unspecified),-11%
Cc1c(C(=O)N(C)Cc2nccs2)sc2ncnc(NCC3CCCO3)c12 (stereo unspecified),-9%
CO[C@H]1C=CO[C@@]2(C)Oc3c(C)c(O)c4c(O)c(c(/C=N/N5CCN(C)CC5)c(O)c4c3C2=O)NC(=O)/C(C)=C\C=C[C@H](C)[C@H](O)[C@@H](C)[C@@H](O)[C@@H](C)[C@H](OC(C)=O)[C@@H]1C,?

The main list resumes, starting two compounds before the break.
mol: O=C(Nc1ccc(Cl)cc1)Nc1ccc(Cl)c(Cl)c1
  EPAC2 ant val: ?

mol: CCC1CN(Cc2cn[nH]c2-c2ccccc2)Cc2cc(OC)ccc2O1 (stereo unspecified)
  EPAC2 ant val: -31%

mol: Cc1nc2cc(NC(=O)[C@@H]3C[C@@H](Sc4ccccn4)CN3Cc3ccc(F)cc3F)ccc2s1
  EPAC2 ant val: 9%

mol: C[C@H](CCC(=O)O)C1CC[C@H]2C3CC[C@@H]4C[C@H](O)CC[C@]4(C)C3C[C@H](O)[C@]12C (stereo partly specified)
  EPAC2 ant val: ?

mol: CC1CCCCN1CCCOC(=O)c1ccccc1 (stereo unspecified)
  EPAC2 ant val: 2%

mol: COc1ccccc1CNc1cc(-c2cccnc2)ncn1
  EPAC2 ant val: -12%

mol: COc1cccc(-c2nccc(N(C)Cc3ccco3)n2)c1
  EPAC2 ant val: -23%

mol: C[n+]1ccc(/C=C/c2ccc3ccccc3c2)cc1
  EPAC2 ant val: 2%

mol: Cc1ccccc1-c1cc(N(C)C)ncn1
  EPAC2 ant val: -18%

mol: C[C@@H]1CN(Cc2ccc3c(c2)CN(Cc2cccc4cccnc24)CCO3)C[C@H](C)O1
  EPAC2 ant val: -18%

mol: Cn1cccc1C(=O)N1CCC[C@@]2(CCN(c3ccncc3)C2)C1
  EPAC2 ant val: -20%

mol: Cc1nc2cnc(Oc3cccc(Cl)c3)nc2n(CCC#N)c1=O
  EPAC2 ant val: ?

mol: COc1cc(=O)n2c(c1C(=O)NC(C)c1ccco1)CCN(Cc1ccc3nsnc3c1)CC2 (stereo unspecified)
  EPAC2 ant val: 2%

mol: CC(=O)OCC(=O)[C@@]1(O)CCC2C3CC[C@H]4CC(O)CC[C@@]4(C)C3C(=O)C[C@]21C (stereo partly specified)
  EPAC2 ant val: -6%

mol: Cc1ccccc1C(=O)N1CCc2c(cnc(C)c2CNC(=O)c2ccc3c(c2)OCO3)C1
  EPAC2 ant val: 12%

mol: CCOC(=O)C1CCCN(C(=O)c2cnn(-c3ncc4c(n3)-c3ccccc3CC4)c2C)C1 (stereo unspecified)
  EPAC2 ant val: 3%

mol: CS(C)(=O)=O
  EPAC2 ant val: -13%

mol: O=C(O)CN(CCN(CC(=O)O)CC(=O)O)CCN(CC(=O)O)CC(=O)O
  EPAC2 ant val: -14%&5%

mol: CS(=O)(=O)Nc1cccc(-c2cc(NCc3cccs3)ncn2)c1
  EPAC2 ant val: -14%

mol: CO/N=C(\C(=O)N[C@@H]1C(=O)N2C(C(=O)O)=C(C[N+]3(C)CCCC3)CS[C@H]12)c1csc(N)n1
  EPAC2 ant val: 21%

mol: N[C@H](C(=O)O)[C@H]1C[C@H]1C(=O)O
  EPAC2 ant val: 2%

mol: Nc1ncn([C@H]2C[C@H](O)[C@@H](CO)O2)c(=O)n1
  EPAC2 ant val: -11%

mol: O=C(NCCc1nnc2n1CCN(Cc1cc3ccccc3o1)CC2)c1ccoc1
  EPAC2 ant val: -2%

mol: O=C(Oc1ccccc1)N1CCC2(CCCN(c3ccc(-c4ccccc4)cc3)C2)CC1
  EPAC2 ant val: -15%
